UCH37 DUB inh – human UCH37 deubiquitinating enzyme inhibition; Q9Y5K5; purified proteasome/UCH37, Ub-AMC cleavage fluorescence; inhibition, % (test concentration not listed); 0.33% of 330,000 active; AID 588478;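 active = mean of two replicates above 20%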;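 note: 0% = compound-free wells with enzyme and 100% = wells lacking proteasome; stock transfer was 100 nL into about 20 µL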
Target sequence (Q9Y5K5 whole entry, looked up): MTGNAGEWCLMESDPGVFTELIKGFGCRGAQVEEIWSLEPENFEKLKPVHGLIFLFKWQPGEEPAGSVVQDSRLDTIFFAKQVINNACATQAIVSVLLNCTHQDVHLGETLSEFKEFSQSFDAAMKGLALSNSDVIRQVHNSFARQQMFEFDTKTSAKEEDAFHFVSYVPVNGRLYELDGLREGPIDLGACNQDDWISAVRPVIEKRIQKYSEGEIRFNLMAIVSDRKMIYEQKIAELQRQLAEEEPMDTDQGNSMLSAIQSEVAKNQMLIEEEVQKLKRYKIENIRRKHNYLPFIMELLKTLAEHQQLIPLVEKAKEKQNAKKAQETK
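Material: human UCH37 enzyme supplied as purified proteasome complex / Amount: 0.15 nM proteasome as dispensed / Buffer or medium: pH 7.4 Tris-HCl (50 mM) with ovalbumin, ATP-MgCl2, DTT / Times: preincubation 30 min, reaction 25 min, room temperature / Technique: AMC fluorescence from Ub-AMC cleavage, excitation 355 nm, emission 460 nm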
ALR H2O2 inh – blocks human ALR sulfhydryl oxidase activity | AID 485317 | P55789 | inhibition, % (concentration not given with the values) | 3.8% of 290,000 active | purified ALR, DTT oxidation, H2O2 HRP-luminol luminescence;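 active = mean and each replicate at 75% or more; inconclusive = only one of the two met; inactive = neither met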;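 note: stock transfer was 7.5 nL into about 7.5 µL; 0% = neutral wells and 100% = wells with inactivated enzyme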
FGF22 binding – FGF22 (human) thermal shift binding | Q9HCT0 | recombinant FGF22 thermal shift, SYPRO orange fluorescence; percent of sucrose octasulfate shift, DMSO zero | calls only at 9.99 µM | 1.5% of 340,000 active | AID 651658;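 active = melting point raised past a set limit in the mean and every replicate; inconclusive = no clear call; three in four hits are not shown here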
Target sequence (Q9HCT0 whole entry, looked up): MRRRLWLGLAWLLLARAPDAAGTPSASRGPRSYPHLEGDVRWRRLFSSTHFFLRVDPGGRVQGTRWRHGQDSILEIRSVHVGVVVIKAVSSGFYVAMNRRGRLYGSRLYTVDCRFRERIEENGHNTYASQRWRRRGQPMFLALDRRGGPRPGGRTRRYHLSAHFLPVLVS
Ecoli growth – E. coli growth inhibition | Escherichia coli growth, OD600, 23 h; hits give low values | OD600 absorbance (test concentration not listed) | 0.21% of 330,000 active | AID 1053175;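 active = OD600 absorbance below the run mean of sample wells minus 3.6 SD, in any replicate, cut at about 0.56 in these data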;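 note: stock transfer was 300 nL into about 60 µL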
LANA-H2B inh – blocks KSHV LANA binding to histone H2A/H2B; Q9QR71; cell-free LANA-H2A/H2B peptide, fluorescence polarization; inhibition, % (test concentration not listed); 0.6% of 320,000 active; AID 2629; in the data active = inhibition mostly above about 10%, no sharp cut-off; inactive = mostly below about 6.7%;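 note: stock transfer was 7.5 nL into about 10 µL; 0% = median of vehicle wells and 100% = median of positive control wells; one replicate is shown; the record names a cut of 25% in any replicate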
HNF4A DNA FP – change in binding of human HNF4 alpha to DNA; HNF4a-FITC DNA binding, fluorescence polarization, 1 h; AID 1224865; P41235; 0.3% of 360,000 active; activity change, % at 10 µM; in the data active = activity change above about 30%, passing the limit was not always enough;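 note: controls were the assay level and a saturating level of protein; the project sought stronger binding though the title names inhibitors; some compounds called inactive have numbers as strong as hits; positive values seem to mean higher polarization but the record does not say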
Beta2AR agonist – human beta-2 adrenergic receptor agonism by FAP. response, % (no concentration beside the values). Am2.2-beta2AR cells, FAP receptor internalization, flow cytometry; reference of the scale not given here. 0.43% of 340,000 active;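 active = response above a set limit, near 3 SD of response in nonfluorescent compounds, cut at about 42% in these data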;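 note: stock transfer was 100 nL into about 11 µL; a reference agonist was the positive control; negative values mostly stem from fluorescent compounds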
Target sequence (P07550 whole entry, looked up): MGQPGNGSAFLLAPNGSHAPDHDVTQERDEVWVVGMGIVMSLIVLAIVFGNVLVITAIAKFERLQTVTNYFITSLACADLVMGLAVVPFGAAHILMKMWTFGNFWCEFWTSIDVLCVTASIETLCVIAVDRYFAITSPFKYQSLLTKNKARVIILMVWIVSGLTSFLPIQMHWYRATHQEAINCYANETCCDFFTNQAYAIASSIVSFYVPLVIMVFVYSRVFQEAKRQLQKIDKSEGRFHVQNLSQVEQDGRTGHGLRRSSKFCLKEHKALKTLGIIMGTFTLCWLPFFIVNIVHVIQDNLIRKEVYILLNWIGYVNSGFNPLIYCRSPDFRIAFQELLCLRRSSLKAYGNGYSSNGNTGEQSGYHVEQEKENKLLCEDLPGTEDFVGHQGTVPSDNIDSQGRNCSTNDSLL
Numbers without * were called inactive; i = inactive; ? = inconclusive; . = not tested or not shown.

canonical_smiles,UCH37 DUB inh,ALR H2O2 inh,FGF22 binding,Ecoli growth,LANA-H2B inh,HNF4A DNA FP,Beta2AR agonist
CC[n+]1c(/C=C/C=C/N(C(C)=O)c2ccccc2)sc2cc(OC)ccc21,14,?,i,0.68,-252,.,.
O=C(CN1C(=O)S/C(=C\C=C\c2ccccc2)C1=O)Nc1cccc(O)c1,-0.6,13,.,0.7,-1.9,-21,12
Cc1ccc(NC(=O)CSCC(=O)Nc2cc(S(=O)(=O)N3CCOCC3)ccc2OC(C)C)cc1,1.7,.,i,0.64,.,0.4,-3
O=C(c1cc(-c2cccs2)on1)N1CCN(c2ccccc2)CC1,2.1,4,i,0.65,-3.3,2.5,-5
O=C(CCN1C(=O)c2ccccc2C1=O)Nc1sc2c(c1C(=O)NCc1ccco1)CCCC2,3.8,-10,.,0.75,7.2,1.8,26
O=c1cc(N2CCN(c3ccccc3Cl)CC2)[nH]c(=O)n1Cc1ccc(F)cc1,0.9,-1,i,0.66,-5.3,2.9,4
CNC(=O)c1cc(Nc2nnc(C)c3ccccc23)ccc1OC,4.6,9,.,0.75,0.3,-0.5,0
CCN1C(=O)CS/C1=C(\C#N)S(=O)(=O)c1ccccc1,7.8,-1,.,0.79,5.2,40*,-2
O=C(COC(=O)C1CC1)c1c[nH]c2ccccc12,3.4,-13,.,0.65,-0.8,3.3,-5
O=C(Nc1ccc(Oc2cccnc2)cc1)C1CCN(Cc2ccc(F)cc2)CC1,0.4,-3,i,0.65,-6.3,0.6,-13
COC(=O)C1=C(C)OC(N)=C(C#N)C1c1c(C)nn(-c2ccccc2)c1Cl (stereo unspecified),2.2,.,.,0.65,-0.2,-0.1,0
Cc1cc2[nH]cnc2c([N+](=O)[O-])c1C,5.3,-40,i,0.62,-3.7,0.2,2
CC1CCc2[nH]c3ccc(C(=O)N(C)CC(=O)Nc4ccccc4C(F)(F)F)cc3c2C1 (stereo unspecified),4.1,-5,i,0.66,1.4,-1.5,0
Cc1ccc(NC(=O)CSc2nnc(-c3cnccn3)n2-c2ccccc2)cc1,0.3,-6,.,0.75,-4.5,5.3,6
CCCn1c(SCC(=O)c2[nH]c(C)c(C(C)=O)c2C)n[nH]c1=O,-0.4,.,i,0.68,-4.6,4.2,-7
COc1ccc(Nc2nc(N)nc(CSC(=S)N3CCCCC3)n2)cc1,2.9,42,.,0.7,1.1,-4.7,-6
Cc1cccc(N=c2c([N+](=O)[O-])nn(-c3ccc(Cl)cc3)n2O)c1,2.9,.,i,0.7,-3.6,-2.6,12
O=C(Cc1ccc(Cl)cc1)NC1CCS(=O)(=O)C1 (stereo unspecified),3.2,-15,i,0.72,6.8,3.1,1
O=C(NCc1nc2ccccc2[nH]1)C1CCCCC1,1.5,-1,i,0.63,-1.9,18,-12
O=C1CC(c2ccccc2)Cc2nc(N3CCc4ccccc4C3)ncc21 (stereo unspecified),1.0,-17,.,0.7,0.7,0.8,19

canonical_smiles,UCH37 DUB inh,ALR H2O2 inh,FGF22 binding,Ecoli growth,LANA-H2B inh,HNF4A DNA FP,Beta2AR agonist
O=C(CCSc1nc(-c2ccco2)cc(C(F)(F)F)n1)N1CCCc2ccccc21,-0.7,-11,.,0.66,-6.6,3.6,-3
Cc1cc(C)c(C(=O)C(C)OC(=O)c2ccccn2)cc1C (stereo unspecified),0.9,7,i,0.69,1.0,4.0,3
COCCN1C(=O)C(=O)/C(=C(/O)c2cccc(S(=O)(=O)N(C)C)c2)C12C(=O)N(C)c1ccccc12 (stereo unspecified),3.7,-1,.,0.78,0.6,-3.4,1
Cc1ccc(NC(=O)CCSc2nc(C)cc(C)n2)cc1,2.1,4,.,0.65,1.1,-0.8,2
COc1ccc(S(=O)(=O)N(C)c2c(C)n(C)n(-c3ccccc3)c2=O)cc1OC,-0.6,-4,.,0.7,1.3,1.1,5
COc1ccc(-c2cc(C(F)(F)F)n3nc(C(=O)Nc4c(C)n(C)n(-c5ccccc5)c4=O)cc3n2)cc1,-7.8,.,i,0.71,.,0.7,12
CCOc1ccc2nc(SC3CC(=O)N(c4ccccc4)C3=O)sc2c1 (stereo unspecified),2.6,6,.,0.73,2.3,2.8,-7
O=C1[C@H]2[C@@H](c3ccc(F)cc3)N3C(=O)N(c4cccc(Cl)c4)C(=O)[C@@]3(Cc3ccc(Cl)cc3)[C@H]2C(=O)N1C1CCCCC1,4.5,-4,i,.,12,2.6,7
Cc1sc(NC(=O)C2CCCCC2C(=O)O)c(C(N)=O)c1-c1ccccc1 (stereo unspecified),1.8,5,.,0.81,-0.6,1.1,2
CCCOc1ccc(OCCSc2nnc(N)s2)cc1,-1.6,38,.,0.68,0.0,.,3
CCNc1sc(C(=O)OCC)c(N)c1C#N,6.4,36,i,0.65,2.6,4.4,1
CC1(C)Oc2ccc(C(=O)N3CCOCC3)cc2N(CC(=O)Nc2ccccc2)C1=O,-1.9,-1,.,0.76,1.8,4.3,1
O=C(NN1C(=O)C2C3C=CC(O3)C2C1=O)c1cccc(O)c1 (stereo unspecified),-2.2,-2,i,0.69,-4.1,-5.8,-1
Cc1ccc(OCC(=O)NNC(=O)c2ccoc2C)c(Br)c1,2.1,-5,.,0.64,0.5,1.1,2
CC(=O)Nc1nc(-c2ccc3c(c2)CCO3)cs1,0.3,-10,i,0.64,-2.4,-4.5,3
CCOc1ccc(C(=O)CSCC(=O)O)cc1,1.2,98*,i,0.65,1.0,-0.2,0
N=c1c(C(=O)NCc2ccco2)cc2c(=O)n3ccccc3nc2n1CC1CCCO1 (stereo unspecified),-155,-5,.,0.73,3.5,0.9,5
Cc1ccccc1NC(=O)C1(NC(=O)c2cccc(N3C(=O)CSC3c3ccccc3)c2)CCCCC1 (stereo unspecified),0.9,0,.,0.73,0.9,4.6,-6
COc1ccc(F)cc1C(=O)C1CCCN(C(=O)CCN2CCCCO2)C1 (stereo unspecified),2.4,-5,i,0.65,-2.6,-2.9,0
CC1CCCCN1C(=S)NCc1ccco1 (stereo unspecified),1.4,69,i,0.71,-7.2,0.5,-3

canonical_smiles,UCH37 DUB inh,ALR H2O2 inh,FGF22 binding,Ecoli growth,LANA-H2B inh,HNF4A DNA FP,Beta2AR agonist
O=C(Nc1ccc(F)cc1)C1CC(=O)N(Cc2ccco2)C1 (stereo unspecified),0.5,-7,i,0.74,-0.5,-4.5,-4
Cc1ccc(-c2cc(C(=O)Nc3nccs3)c3ccccc3n2)c(C)c1,-1.6,-4,i,0.71,-2.6,-6.1,16
O=C(NC(=S)Nc1cccnc1Cl)c1ccc(Cl)cc1,4.2,7,i,0.68,-2.4,0.3,-7
N#Cc1c(/N=C/c2cc3ccccc3s2)sc2c1CCC2,.,?,.,.,-0.4,4.3,10
O=C(O)c1cc(-c2ccccc2Cl)n(-c2ccccc2)n1,3.3,1,i,0.67,-1.6,2.9,-7
Nc1ccc2c(c1)nnn2-c1ccccc1,-201,11,i,0.63,3.9,0.2,-5
CC1CCN(C(=O)Cn2cnc3c(cnn3C(C)(C)C)c2=O)CC1,5.7,-4,i,0.72,0.2,-5.0,-3
CC1CCC(NC(=O)c2cccc(S(=O)(=O)N3CCN(c4ccc(F)cc4)CC3)c2)CC1 (stereo unspecified),0.9,0,i,0.71,-0.1,-3.4,7
COc1cccc(OC)c1C(=O)Nc1nc(COc2ccccc2)cs1,-1.8,-10,i,0.71,-2.4,0.1,0
O=C(Nc1ccc(N2CCOCC2)cc1)c1cccc2ccccc12,1.9,25,i,0.72,0.1,-1.7,4
Cc1ccc(NS(=O)(=O)c2ccc(Cl)nc2)c(C)c1,4.3,.,i,0.65,.,0.8,-2
CC(=O)N(c1ccccc1)C(C(=O)c1ccccc1)c1ccccc1 (stereo unspecified),1.3,.,.,0.69,.,2.2,1
CC(=O)Nc1ccc(NC(=O)C(C)OC(=O)C2CC(=O)N(CCc3ccccc3)C2)cc1 (stereo unspecified),1.2,-2,i,0.67,3.0,3.9,4
O=C1/C(=C/c2ccc(O)cc2)SC(=S)N1CC1CCCO1 (stereo unspecified),6.8,99*,i,0.68,-23,91*,-21
COc1cc(C2/C(=C(\O)c3ccc4c(c3)CC(C)O4)C(=O)C(=O)N2c2nnc(C)s2)cc(OC)c1OC (stereo unspecified),8.0,4,i,0.68,-2.0,0.7,11
Cc1ccc(N=C2SCCCN2C(=O)c2cccc(N3C(=O)CCC3=O)c2)cc1Cl,0.9,-9,i,0.69,1.3,-1.5,-2
COc1ccccc1N1CC(C(=O)Nc2cc(C(F)(F)F)ccc2N2CCCC2)CC1=O (stereo unspecified),6.5,1,i,0.74,-2.3,-2.9,8
N#Cc1ccc(CSc2nnc(-c3cccnc3)o2)cc1,-1.5,-4,i,0.65,6.3,-1.8,-8
O=C(c1cccc(Oc2c(Cl)cccc2[N+](=O)[O-])c1)N1CCOCC1,1.8,-2,i,0.71,-0.8,-0.5,-2
C=CC[C@@H](Cc1ccc(F)cc1)C(=O)OC[C@H]1CCCN1C(=O)[C@H](CC=C)CC(=O)N[C@H](CO)Cc1ccccc1,4.3,-5,i,.,0.2,-1.0,-2

Complete entries, quoted from the list:
Shown for `N#Cc1ccc(CSc2nnc(-c3cccnc3)o2)cc1` → UCH37 DUB inh = -1.5; ALR H2O2 inh = -4; FGF22 binding = i; Ecoli growth = 0.65; LANA-H2B inh = 6.3; HNF4A DNA FP = -1.8; Beta2AR agonist = -8
Shown for `COc1ccc(F)cc1C(=O)C1CCCN(C(=O)CCN2CCCCO2)C1` (stereo unspecified) → UCH37 DUB inh = 2.4; ALR H2O2 inh = -5; FGF22 binding = i; Ecoli growth = 0.65; LANA-H2B inh = -2.6; HNF4A DNA FP = -2.9; Beta2AR agonist = 0

(next part)
canonical_smiles,UCH37 DUB inh,ALR H2O2 inh,FGF22 binding,Ecoli growth,LANA-H2B inh,HNF4A DNA FP,Beta2AR agonist
O=c1cc(N/N=C/c2ccccc2)[nH]c(=O)[nH]1,.,-21,.,.,6.0,-7.0,4
Cc1ccc(SCCC(=O)NCc2ccccn2)cc1,6.3,5,i,0.74,1.1,2.8,-4
COCCCn1c(C(=O)NCCC2=CCCCC2)cc2c(=O)n3ccccc3nc21,i,0,i,0.7,4.9,1.2,-14
CC(CC(=O)Nc1cc([N+](=O)[O-])ccc1Cl)c1ccccc1 (stereo unspecified),4.1,-4,.,0.74,2.6,1.1,-19
O=C(Nc1ccc([N+](=O)[O-])cc1)N1CCc2ccccc2C1,5.2,-11,i,0.57,-32,2.6,2
O=C(Nc1ccccc1Oc1ccccc1)c1cccc([N+](=O)[O-])c1,7.7,-16,.,0.66,-3.7,-0.5,-17

This is a subset; count on the stated rates, not on these rows.
